Compound activity from PubChem.
TRPV1 potentiator: enhances activation of the human vanilloid receptor TRPV1. TRPV1-expressing cells, Fluo-8 calcium influx, capsaicin EC20 potentiation; host cell line not named in the record; control for the full effect not named in the record. 320,000 tested, 0.02% active. AID 540277. potentiation, % at 8.33 µM; active means potentiation above 80%; inconclusive means 30% to 80%; inactive means below 30%; further: 0% is about no effect
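Cells expressing TRPV1 were dye-loaded with Fluo-8 and read kinetically: 10 s baseline, 3 min after compound (agonist portion), then 2 min after EC20 capsaicin (allosteric enhancer portion). Calcium-bound dye fluorescence at 480/520 nm.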
ClpP mod: qHTS Assay for Activators of ClpP | purified B. subtilis ClpP, FRET peptide cleavage, 20 min | Potency, µM (highest dose often 57.5 µM), for the others: at the highest dose activity change, negative = active | 340,000 tested, 1.9% active; active = well fitted falling curve with a large enough effect; inconclusive = small, poorly fitted or top-dose-only effect; inactive = no such curve, though single readings can be large or run the other way; further: potency means the concentration at half of the fitted maximal effect; the source files actives as falling curves though it sought activators and does not explain the sign; nearly all actives have a fitted effect of over 65% in size; many hits overshoot -100%
Target sequence (P80244 whole entry, looked up): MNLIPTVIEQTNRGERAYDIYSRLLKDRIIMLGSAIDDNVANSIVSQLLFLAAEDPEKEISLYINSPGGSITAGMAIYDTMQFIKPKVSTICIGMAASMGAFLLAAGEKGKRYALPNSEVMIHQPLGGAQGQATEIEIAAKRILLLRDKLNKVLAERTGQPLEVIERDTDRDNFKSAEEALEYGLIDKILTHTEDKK
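Buffer: 100 mM Tris/HCl pH8, 100 mM KCl, 0.05% low protease BSA, 2.5% glycerol, 0.01% Tween-20. ClpP 10 microg/mL final; 20 min RT; delta FRET normalized to ADEP and DMSO controls.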
Menin MLL FP FL: menin-MLL binding inhibition, fluorescein peptide; Fluorescence polarization, fluorescein-MLL peptide displacement from menin; FP activity change, % at 61.4 µM; 290,000 tested, under 10 active; inconclusive = falling polarisation curve, or a change in total fluorescence; inactive = total fluorescence flat and polarisation flat or rising; no compound was filed as active; the % refers to the polarisation; negative = inhibition;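 further: % of control where 0% means no effect; inhibitors lower the polarisation; unlabelled MLL peptide was the positive control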
TRPML1 inh: blocks the human TRPML1 channel. Q9GZU1. TRPML1-inducible cells, Ca2+ dye fluorescence, FDSS; hits give low values; inhibition of EC80 agonist-evoked calcium signal. activity change, negative = inhibition, % (concentration not given with the values). 390,000 tested, 0.02% active. AID 624415; in the data active means activity change below about -50%; inconclusive means about -30% to -50%; inactive means above about -30%;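 further: stimulus is agonist 54-4 at its EC80 concentration; on the % scale 0 is the no-effect control and ±100 the full control effect; compound concentration not given in the record; the text of the record puts the active cut at -80%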
Target sequence (Q9GZU1 whole entry, looked up): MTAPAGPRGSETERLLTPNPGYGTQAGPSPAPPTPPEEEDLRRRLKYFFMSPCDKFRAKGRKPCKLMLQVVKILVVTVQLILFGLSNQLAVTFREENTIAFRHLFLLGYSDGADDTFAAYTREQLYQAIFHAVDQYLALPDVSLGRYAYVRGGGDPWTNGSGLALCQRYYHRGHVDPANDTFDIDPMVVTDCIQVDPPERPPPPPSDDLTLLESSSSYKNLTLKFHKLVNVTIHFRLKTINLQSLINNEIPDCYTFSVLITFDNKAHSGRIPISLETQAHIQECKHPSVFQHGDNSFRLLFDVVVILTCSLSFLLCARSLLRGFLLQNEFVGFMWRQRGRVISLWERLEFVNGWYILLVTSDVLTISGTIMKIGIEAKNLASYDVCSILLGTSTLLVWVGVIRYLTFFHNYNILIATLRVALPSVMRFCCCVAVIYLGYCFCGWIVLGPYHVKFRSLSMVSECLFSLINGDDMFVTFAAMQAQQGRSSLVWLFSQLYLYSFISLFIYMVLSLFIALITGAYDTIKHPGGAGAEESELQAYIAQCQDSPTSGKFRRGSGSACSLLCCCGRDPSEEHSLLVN
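Calcium fluorescence in TRPML1-DL cells induced overnight with Tet: a 110 s read after compound pin addition, then a 110 s antagonist read after challenge with 54-4 at 4 uM final (EC80).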
Sfp inh: blocks B. subtilis Sfp PPTase activity | Q9F4F7 | Biochemical Sfp PPTase activity, qHTS | Potency, µM, inactives show max response, negative = inhibition, actives largely listed as inhibitors | 310,000 tested, 3.5% active; active means well fitted inhibition curve with a large enough effect; inconclusive means small, poorly fitted or top-dose-only effect, or another doubt; inactive means no such curve, though single readings can be large or run the other way;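 further: the enzyme is Sfp with the accession as filed and its product quenches rhodamine fluorescence; potency means the concentration at half of the fitted maximal effect; 0% = enzyme reaction without inhibitor and -100% = no enzyme wells; top concentration of the series not given in the record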
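Fluorescence-quenching assay with 15 nM Sfp, 5 uM rhodamine-CoA and 12.5 uM BHQ-2-labelled ybbR peptide in pH 7.6 Hepes/MgCl2 buffer. Enzyme was pre-incubated with compound for 15 min at room temperature. Rate was taken from the 30-min fluorescence change (525/598 nm).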
gsp antagonist: antagonists of gsp mutant (McCune-Albright syndrome); gsp-mutant cells, cAMP HTRF, 30 min; control for the full effect not named in the record; Potency, µM (titrated, usually from 76.9 µM), for the others: at the top dose activity change, negative = inhibition, hits mostly inhibitors; AID 624288; 340,000 tested, 0.4% active; active = falling curve of any shape with a large fitted effect; inconclusive = falling curve, mostly with a smaller effect; inactive = flat or rising curve; cell line not stated here;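 further: intracellular cAMP measured with PDE inhibitor Ro 20-1724 present during compound exposure; potency means the concentration at half of the fitted maximal effect; on the % scale 0 is the no-effect control and ±100 the full control effect; nearly all actives have a fitted effect of over 65% in size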
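Cells, 2000/well, grown 16–24 h in DMEM 10% FBS with 0.5 mg/ml G418, then compounds plus […] (300 uM addition stock), 30 min at 37C. cAMP read by HTRF (cAMP-d2 and anti-cAMP antibody-K in lysis buffer) after 30 min RT.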
gsp agonist: gsp mutant agonism; Potency, µM (doses to about 76.9 µM), inactives show top-dose activation (cAMP increase), usual class: activators; gsp mutant cells, cAMP HTRF, 30 min; control for the full effect not named in the record; 340,000 tested, 0.13% active; active = well fitted activation curve with a large enough effect; inconclusive = small, poorly fitted or top-dose-only effect, or another doubt; inactive = no such curve, though single readings can be large or run the other way; cell line not stated here;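 further: phosphodiesterase inhibitor Ro 20-1724 added with compounds to block cAMP breakdown; potency means the concentration at half of the fitted maximal effect; nearly all actives have a fitted effect of over 60% in size; about a fifth of the inactives were tested at one dose only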
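Cells stably selected in G418 were plated at 2000/well, grown 16-24 hr, then given compounds in DMSO with the PDE inhibitor […] (300 uM solution added) for 30 min at 37C; cAMP was read by HTRF.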
Active calls of the source: *; ? = inconclusive; / = not tested or not shown; & = joins results of further samples; [ ] = another dose, or the depositor's remark. Rows were taken by chance; any-hit rate near 4.9%.

SMILES	TRPV1 potentiator	ClpP mod	Menin MLL FP FL	TRPML1 inh	Sfp inh	gsp antagonist	gsp agonist
O=C(NCc1nc2ccccc2[nH]1)c1ccccc1F	4	/	4.2	12	17%	7%	-17%[15.4 µM]
O=C(O)c1cc(-c2ccccc2)on1	0	0.8%	8.3	-14	-10%	-7%	13%
O=C(/C=C(\O)c1ccc(Cl)cc1)C(=O)NNC(=O)C(O)(c1ccccc1)c1ccccc1	4	-1.0%	4.1	4	17%	-2%	-2%
COc1ccc(/C=C(\C#N)C(=O)NCC2CCCO2)cc1OC (stereo not drawn)	-1	-6.7%	1.4	-14	10%	9%	3%
Cc1ccnc(SCc2nc3ccccc3s2)n1	5	-2.9%	-0.8	2	-4%	-15%	2%
Cc1ncc(CN2CCC(CO)(Cc3ccccc3)CC2)s1	-4	2.1%	-1.0	3	-6%	17%	3%
CCOC(=O)c1c(-c2ccccc2)nc2ccc(C)cn12	-18	-6.8%	1.1	6	20%	-7%	-3%
O=C(CN1CCOCC1)Nc1ncc(Cc2cccc3ccccc23)s1	-14	-1.0%	-1.0	8	2%	-3%	15%
CCOc1ccc(NC(=O)c2ccc3c(=O)n(-c4ccc(OC)cc4OC)c(=S)[nH]c3c2)cc1	-1	/	-0.7	/	1%	/	/
O=C(Nc1ccc(O)cc1)/C(=C\C=C\c1ccccc1)NC(=O)c1ccccc1	0	-2.5%	2.0	-1	19%	-5%	1%
CCN1CCN(CCCNC(=O)C(=O)c2c(C)[nH]c3ccccc23)CC1	-9	/	2.5	1	-5%	7%	-3%[15.4 µM]
CCc1nnc(NC(=O)C(CC)CC)s1	-4	0.0%	-2.0	-3	0%	17%	-55%[inhibitor]
CC(=O)c1ccc(Nc2nc(-c3ccccc3)nc3ccccc23)cc1	/	/	/	2	/	-43%	2%
OC(CN=c1sc2ccccc2n1CC(O)COc1ccccc1)COc1ccccc1 (stereo not drawn)	17	-1.8%	0.5	-1	6%	?	-7%
Cc1ccc(C)c2[nH]c(=O)c(CN(Cc3ccco3)C(=S)NCC3CCCO3)cc12 (stereo not drawn)	-4	/	7.1	-7	-18%	/	-1%[15.4 µM]
COc1ccc(C(=O)NCC(=O)NCC2COc3ccccc3O2)cc1 (stereo not drawn)	-11	-0.1%	-8.2	14	15%	9%	-17%
Cc1ccc2c(C)c(C(=O)Nc3cccnc3)oc2c1	-2	-14%	-0.4	-3	5%	5%	-21%
O=C(CCc1ccccc1)NCC1(c2ccccc2)CCCC1	-4	/	-1.6	-4	-5%	-2%	-11%
O=C(/C=C\Nc1ccc2c(c1)OCO2)c1cccs1	-10	/	8.1	12	3%	/	-10%[15.4 µM]
CCN(c1ccc(NC(=O)COC(=O)c2cc3ccccc3oc2=O)cc1)C(C)C	0	/	-4.2	8	4%	-13%	-3%[15.4 µM]
CCOC(=O)NNC(=O)C1CCC(C)CC1 (stereo not drawn)	1	1.7%	-0.1	1&5	21%	4%	8%
CCN(CC(=O)Nc1ccccc1OC)C(=O)c1ccc(NS(=O)(=O)c2ccc(C(C)=O)cc2)cc1	19	/	/	9	13%	-19%	-3%[15.4 µM]
Cc1ccc2c(c1)[C@H]1[C@H](CO2)[C@H](c2ccccc2)[C@]2(C)C(=O)Nc3cc(F)ccc3C(=O)N12	/	-6.4%	/	10	/	-19%	/
Cc1noc(C)c1C(=O)OCC(=O)Nc1c(F)cccc1F	-2	0.9%	-4.9	-11	15%	9%	10%[15.4 µM]
CCCCSc1nc2c(c(=O)[nH]c(=O)n2C)n1CCc1ccccc1	-11	-7.5%	3.7	-16	9%	-6%	-2%

Next compounds:
SMILES	TRPV1 potentiator	ClpP mod	Menin MLL FP FL	TRPML1 inh	Sfp inh	gsp antagonist	gsp agonist
COc1cccc(-n2nnc3c(=O)n(C/C=C/c4ccccc4)cnc32)c1	15	-4.6%	2.2	-12	11%	-21%	-104%[inhibitor]
O=C(CSc1nnc(COc2ccc(Cl)cc2)n1Cc1ccco1)c1ccccc1F	6	1.0%	6.7	13	?	-11%	?
O=C(c1ccccc1Nc1ccc(SC(F)F)cc1)N1CCCCC1	-3	-3.2%	1.8	24	3%	5%	0%
Cc1ccc(NC(=O)CN2CCN(C)CC2)cc1S(=O)(=O)N1CCOCC1	-4	/	/	11	/	8%	15%[15.4 µM]
O=C(OCC(=O)N1CCN(C(=O)c2ccco2)CC1)c1cc(F)c(F)cc1Cl	/	/	/	-2	/	3%	20%
CC1CN(C(=O)C(C)Sc2nnnn2C)CC(C)O1 (stereo not drawn)	3	-0.6%	3.7	-8	22%	-8%	23%
O=C(COC(=O)c1ccccn1)NC1CCCCC1	5	-0.3%	2.1	-3	11%	-1%	0%
CN(c1ccccc1)S(=O)(=O)c1cccc(NC(=O)Cn2cnc3ccccc3c2=O)c1	82*	1.4%	-1.9	9	4%	-23%	-23%
Cc1ccccc1N1CC(O)(c2ccccc2)[N+]2=C1SCC2 (stereo not drawn)	-3	-2.7%	-1.5	-2	-20%	-9%	-14%
COc1ccc(NC(=O)CCNC(=O)c2ccccc2)cc1S(N)(=O)=O	3	/	0.5	-1	9%	8%	5%[15.4 µM]
CS(=O)(=O)c1ccccc1-c1nnc(NC(=O)Cc2ccccc2)o1	3	-7.9%	/	7	-13%	-4%	18%
CCc1[nH]nc2c1C(c1ccsc1)C(C#N)=C(N)O2 (stereo not drawn)	-4	-1.7%	0.9	-2	-4%	2%	0%
COCC1CCCCN1C(=O)c1ccc(OC2CCN(CCc3ccccc3)CC2)cc1 (stereo not drawn)	2	0.2%	0.4	8	0%	6%	5%
O=C1C(=O)N(C2CCS(=O)(=O)C2)C(c2cccc(O)c2)/C1=C(/O)c1ccc(Cl)cc1 (stereo not drawn)	?	-0.1%	0.5	3	11%	19%	1%
O=C(CN1C(=O)S/C(=C\c2ccccn2)C1=O)Nc1ccc(F)cc1	28	-0.4%	/	-3	-7%	-4%	-27%
COc1ccc(C(C(=O)NC2CCCCC2)N(C(=O)c2ccco2)c2ccccc2OC)cc1 (stereo not drawn)	-19	/	2.4	17	6%	-11%	-47%[15.4 µM]
N=c1oc2ccc3ccccc3c2cc1C(N)=S	-14	4.0%	2.6	-10	?	-8%	?
CCc1ccc(CC)c(S(=O)(=O)Nc2ccc(C(=O)O)c(O)c2)c1	9	-23%	-0.6	-7	6%	5%	-2%
CC(C)c1ccc(C(=O)N2CCCN(C(=O)c3ccc(C(C)C)cc3)CC2)cc1	3	-3.0%	8.8	24	20%	3%	21%
COc1cccc(NC(=O)CSc2nnc(COc3ccc4c(c3)CCCC4)o2)c1	-3	-1.1%	3.4	-4	14%	2%	-33%[inhibitor]
COCCN(CC(=O)Nc1cccc(C)c1C)C(=O)c1ccc2ccccc2n1	13	-2.1%	/	-13	/	-4%	-17%
CS(=O)(=O)c1ccc(Cl)c(NC(=O)Nc2ccccc2)c1	13	-0.7%	3.0	/	8%	5%	-3%
Cn1c(C(=O)N[C@@H](C(=O)O)c2ccccc2)cc2cc(Cl)ccc21	?	/	?	-13	6%	7%	?
CC(=O)c1cc(C(=O)c2ccccc2)sc1Nc1ccccc1	-1	-4.1%	4.4	-8	79µM*	?	6%[15.4 µM]
CCOC(=O)c1cnc(Nc2ccccc2)nc1C(F)(F)F	-24	/	3.0	-4	13%	-9%	-4%[15.4 µM]

Part of the list above, bar-delimited.
canonical_smiles | TRPV1 potentiator | ClpP mod | Menin MLL FP FL | TRPML1 inh | Sfp inh | gsp antagonist | gsp agonist
O=C(NCc1nc2ccccc2[nH]1)c1ccccc1F | 4 | / | 4.2 | 12 | 17% | 7% | -17%[15.4 µM]
COc1ccc(C(=O)NCC(=O)NCC2COc3ccccc3O2)cc1 (stereo not drawn) | -11 | -0.1% | -8.2 | 14 | 15% | 9% | -17%
CCOC(=O)c1c(-c2ccccc2)nc2ccc(C)cn12 | -18 | -6.8% | 1.1 | 6 | 20% | -7% | -3%
O=C(Nc1ccc(O)cc1)/C(=C\C=C\c1ccccc1)NC(=O)c1ccccc1 | 0 | -2.5% | 2.0 | -1 | 19% | -5% | 1%
CCOC(=O)c1cnc(Nc2ccccc2)nc1C(F)(F)F | -24 | / | 3.0 | -4 | 13% | -9% | -4%[15.4 µM]

Remaining list, next part.
SMILES	TRPV1 potentiator	ClpP mod	Menin MLL FP FL	TRPML1 inh	Sfp inh	gsp antagonist	gsp agonist
CCOC(=O)C1CCN(C(=O)c2ccc(Br)o2)CC1	/	-5.1%	2.2	-4	13%	12%	-2%
O=C(c1ccco1)N1N=C(C2CCCCC2)CC1(O)C(F)(F)F (stereo not drawn)	3	/	-1.4	33	8%	/	-3%[15.4 µM]
Cc1ccc(CNC(=O)CCS(=O)(=O)c2ccc3c(c2)CC(C)N3C(=O)C2CC2)o1 (stereo not drawn)	6	-1.9%	/	-12	-4%	4%	-10%
CCC(CC)C(=O)Nc1cccc(/C(C)=N/NC(=O)c2c(Br)cnn2C)c1	-20	-2.6%	2.9	4	6%	-2%	1%
Cc1ncoc1C(=O)N1CCCC(C(=O)c2ccc3c4c(cccc24)CC3)C1 (stereo not drawn)	-7	4.4%	3.9	6	-1%	-19%	?
O=C(N/N=C/c1ccccc1Br)c1cccc(S(=O)(=O)N2CCOCC2)c1	-25	1.0%	/	-1	/	?	-26%
CCOC(=O)[C@H]1[C@H]2COc3ccccc3[C@@H]2N2C(=O)c3c(C)cc(C)cc3NC(=O)[C@@]12C	-18	-1.3%	/	9	/	-16%	-25%
COc1cccc(C(=O)NCC2CCCN(C3CCCCC3)C2)c1OC (stereo not drawn)	-2	-4.5%	7.1	-3	-3%	-1%	-17%
Cc1nc2ccccc2nc1OCC(=O)NCc1ccc2c(c1)OCO2	0	-21%	2.1	-12	-3%	7%	-35%[inhibitor]

Pulled one by one from above:
SMILES	TRPV1 potentiator	ClpP mod	Menin MLL FP FL	TRPML1 inh	Sfp inh	gsp antagonist	gsp agonist
Cc1ccc(CNC(=O)CCS(=O)(=O)c2ccc3c(c2)CC(C)N3C(=O)C2CC2)o1 (stereo not drawn)	6	-1.9%	/	-12	-4%	4%	-10%
O=C(c1ccco1)N1N=C(C2CCCCC2)CC1(O)C(F)(F)F (stereo not drawn)	3	/	-1.4	33	8%	/	-3%[15.4 µM]
